gsp antagonist = gsp mutant antagonism; 340,000 tested, 0.4% active; gsp-mutant cells, cAMP HTRF, 30 min; control for the full effect not named in the record; AID 624288; Potency, µM (titrated, usually from 76.9 µM), for inactives: at the highest dose activity change, negative = inhibition, most hits filed as inhibitors; active = falling curve of any shape with a large fitted effect; inconclusive = falling curve, mostly with a smaller effect; inactive = flat or rising curve; cell line not stated here;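 note: intracellular cAMP measured with PDE inhibitor Ro 20-1724 present during compound exposure; potency is the fitted concentration of half-maximal effect; % is set by controls: 0 for no effect and ±100 for the full control effect; nearly all actives have a fitted effect of over 65% in size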
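G418-selected cells were plated in DMEM/10% FBS for 16-24 h at 37C, then treated with compounds plus the PDE inhibitor […] (300 uM solution added) for 30 min at 37C. Intracellular cAMP was measured by HTRF after 30 min lysis at room temperature.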
ClpP mod = qHTS Assay for Activators of ClpP; purified B. subtilis ClpP, FRET peptide cleavage, 20 min; Potency, µM (highest dose often 57.5 µM), without a hit: at the top dose activity change, negative = active; 340,000 tested, 1.9% active; active = well fitted falling curve with a large enough effect; inconclusive = small, poorly fitted or top-dose-only effect; inactive = no such curve, though single readings can be large or run the other way; note: potency is the fitted concentration of half-maximal effect; the source files actives as falling curves though it sought activators and does not explain the sign; nearly all actives have a fitted effect of over 65% in size; many hits overshoot -100%
Target sequence (P80244 whole entry, looked up): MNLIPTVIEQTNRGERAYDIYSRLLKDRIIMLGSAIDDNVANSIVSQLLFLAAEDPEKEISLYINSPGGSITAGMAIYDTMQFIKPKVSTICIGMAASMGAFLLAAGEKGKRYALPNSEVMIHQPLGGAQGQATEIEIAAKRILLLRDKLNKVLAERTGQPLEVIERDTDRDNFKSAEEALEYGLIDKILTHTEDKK
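Buffer: 100 mM Tris/HCl pH8, 100 mM KCl, 0.05% low protease BSA, 2.5% glycerol, 0.01% Tween-20. ClpP 10 microg/mL final; 20 min RT; delta FRET normalized to ADEP and DMSO controls.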
gsp agonist = activates gsp, the McCune-Albright syndrome mutation | gsp mutant cells, cAMP HTRF, 30 min; control for the full effect not named in the record | Potency, µM (titrated, usually from 76.9 µM), without a hit: at the top dose activation (cAMP increase), hits mostly activators | 340,000 tested, 0.13% active | AID 624287; active = well fitted activation curve with a large enough effect; inconclusive = small, poorly fitted or top-dose-only effect, or another doubt; inactive = no such curve, though single readings can be large or run the other way; cell line not stated here;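 note: phosphodiesterase inhibitor Ro 20-1724 added with compounds to block cAMP breakdown; potency is the fitted concentration of half-maximal effect; nearly all actives have a fitted effect of over 60% in size; about a fifth of the inactives were tested at one dose only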
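Cells in DMEM/10% FBS with G418 were pretreated with compounds in DMSO plus […] (300 uM stock) for 30 min at 37C. cAMP was measured by HTRF (cAMP-d2 plus anti-cAMP antibody-K) after 30 min at room temperature.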
TRPV1 PAM = potentiators of human vanilloid receptor 1 (TRPV1) | Q8NER1 | TRPV1-expressing cells, Fluo-8 calcium influx, capsaicin EC20 potentiation; host cell line not named in the record; control for the full effect not named in the record | potentiation, % at 8.33 µM | 320,000 tested, 0.02% active | AID 540277; active means potentiation above 80%; inconclusive means 30% to 80%; inactive means below 30%; note: 0% is about no effect
Target sequence (Q8NER1 whole entry, looked up): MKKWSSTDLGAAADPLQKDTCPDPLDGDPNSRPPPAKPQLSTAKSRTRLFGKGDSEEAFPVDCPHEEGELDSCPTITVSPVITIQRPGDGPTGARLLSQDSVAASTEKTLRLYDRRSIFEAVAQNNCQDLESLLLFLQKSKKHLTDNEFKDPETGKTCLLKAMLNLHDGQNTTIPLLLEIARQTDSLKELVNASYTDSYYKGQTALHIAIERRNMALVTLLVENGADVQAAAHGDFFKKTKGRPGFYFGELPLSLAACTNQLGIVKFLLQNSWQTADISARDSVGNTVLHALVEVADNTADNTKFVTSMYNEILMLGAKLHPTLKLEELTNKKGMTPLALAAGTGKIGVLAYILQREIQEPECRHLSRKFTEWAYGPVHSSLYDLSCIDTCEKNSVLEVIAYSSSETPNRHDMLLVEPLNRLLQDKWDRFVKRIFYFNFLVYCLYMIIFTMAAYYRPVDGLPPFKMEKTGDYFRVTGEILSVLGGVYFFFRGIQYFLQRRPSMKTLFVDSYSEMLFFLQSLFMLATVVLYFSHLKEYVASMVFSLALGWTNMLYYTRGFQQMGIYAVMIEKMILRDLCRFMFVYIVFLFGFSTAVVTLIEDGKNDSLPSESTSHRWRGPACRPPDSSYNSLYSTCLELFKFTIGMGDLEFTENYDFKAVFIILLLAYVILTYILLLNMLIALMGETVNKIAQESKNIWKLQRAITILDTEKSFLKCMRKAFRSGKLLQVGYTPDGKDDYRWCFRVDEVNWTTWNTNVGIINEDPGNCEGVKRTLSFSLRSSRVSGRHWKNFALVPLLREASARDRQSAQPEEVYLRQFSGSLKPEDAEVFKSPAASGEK
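Cells expressing TRPV1 were dye-loaded with Fluo-8 and read kinetically: 10 s baseline, 3 min after compound (agonist portion), then 2 min after EC20 capsaicin (allosteric enhancer portion). Calcium-bound dye fluorescence at 480/520 nm.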
Menin-MLL FL inh = displaces fluorescein MLL peptide from human menin; Fluorescence polarization, fluorescein-MLL peptide displacement from menin; FP activity change, % at 61.4 µM; 290,000 tested, under 10 active; AID 1766; inconclusive = falling polarisation curve, or a change in total fluorescence; inactive = total fluorescence flat and polarisation flat or rising; no compound was filed as active; the % refers to the polarisation; negative = inhibition;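 note: % of control where 0% means no effect; inhibitors lower the polarisation; unlabelled MLL peptide was the positive control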
TRPML1 inh = blocks the human TRPML1 channel | 390,000 tested, 0.02% active | activity change, negative = inhibition, % (test concentration not listed) | TRPML1-inducible cells, Ca2+ dye fluorescence, FDSS; stronger effect = lower value; inhibition of EC80 agonist-evoked calcium signal; in the data active means activity change below about -50%; inconclusive means about -30% to -50%; inactive means above about -30%;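 note: stimulus is agonist 54-4 at its EC80 concentration; % is set by controls: 0 for no effect and ±100 for the full control effect; compound concentration not given in the record; the text of the record puts the active cut at -80%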
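Calcium fluorescence in TRPML1-DL cells induced overnight with Tet: a 110 s read after compound pin addition, then a 110 s antagonist read after challenge with 54-4 at 4 uM final (EC80).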
Sfp PPTase inh = blocks B. subtilis Sfp PPTase activity | Q9F4F7 | Biochemical Sfp PPTase activity, qHTS | Potency, µM, inactives show max response, negative = inhibition, hits mostly inhibitors | 310,000 tested, 3.5% active | AID 1490; active = well fitted inhibition curve with a large enough effect; inconclusive = small, poorly fitted or top-dose-only effect, or another doubt; inactive = no such curve, though single readings can be large or run the other way;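 note: the enzyme is Sfp with the accession as filed and its product quenches rhodamine fluorescence; potency is the fitted concentration of half-maximal effect; 0% = enzyme reaction without inhibitor and -100% = no enzyme wells; top concentration of the series not given in the record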
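Buffer: 50 mM Hepes-Na pH 7.6, 10 mM MgCl2, 0.01% Nonidet P-40, 0.01% BSA. Enzyme 15 nM, pre-exposed to compound 15 min; substrates then added and fluorescence change tracked over 30 min.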
Active calls of the source: *; & = joins results of further samples; [ ] = dose if it differs, or a comment.

`CC1CCN(C(=S)NC(=O)c2ccccc2)CC1` gave gsp antagonist 10%, ClpP mod 0.8%, gsp agonist 7%, TRPV1 PAM 11, Menin-MLL FL inh 4.6, TRPML1 inh 6 and Sfp PPTase inh -2%.
Screening O=[N+]([O-])c1cccc(S(=O)(=O)Nc2ccc(S(=O)(=O)NCC3CCCO3)cc2)c1 (configuration not stated) returned gsp antagonist 8%, ClpP mod -0.3%, gsp agonist -15%, TRPV1 PAM 18, Menin-MLL FL inh -6.9, TRPML1 inh 14 and Sfp PPTase inh -1%.
For CCOCCCNC(=O)C1CCN(C(=O)Nc2ccc(Cl)cc2)CC1 the results were gsp antagonist 11%, ClpP mod 0.9%, gsp agonist 8%, TRPV1 PAM 7, Menin-MLL FL inh 2.8, TRPML1 inh -10 and Sfp PPTase inh 3%.
For O=C(NCCN1CCc2ccccc2C1)C1CCN(S(=O)(=O)N2CCCCC2)CC1 the results were gsp antagonist 3%, ClpP mod -8.8%, gsp agonist 18%, TRPV1 PAM 0, Menin-MLL FL inh 8.4, TRPML1 inh 3 and Sfp PPTase inh inconclusive.
For COc1ccc(N(C(=O)COc2ccc(F)cc2)S(=O)(=O)c2ccc(C)cc2)cc1 the results were gsp antagonist 3%, ClpP mod -0.4%, gsp agonist 2%, TRPV1 PAM 9, Menin-MLL FL inh 3.9, TRPML1 inh 31 and Sfp PPTase inh 5%.
Screening CCOc1ccc(-c2cc(C(=O)N3CCC(C)CC3)c3ccccc3n2)cc1 returned gsp antagonist -3%, ClpP mod 32µM*, gsp agonist -13% and TRPML1 inh 13.
Screening O=C(CCc1nc(-c2ccccc2)no1)NCc1ccco1 returned gsp antagonist 0%, ClpP mod -2.3%, gsp agonist inconclusive, TRPV1 PAM 19, Menin-MLL FL inh 4.3, TRPML1 inh -1 and Sfp PPTase inh -16%.
For Cc1oc2c(C)c3oc(=O)c(CCC(=O)N4C[C@H]5C[C@@H](C4)c4cccc(=O)n4C5)c(C)c3cc2c1C the results were gsp antagonist -5%, ClpP mod -21%, TRPV1 PAM 22, Menin-MLL FL inh 2.1 and Sfp PPTase inh 8%.
Screening Cc1cccc(CNC(=O)Cn2ccc3cc(S(=O)(=O)N4CCCCCC4)ccc32)c1 returned gsp antagonist -19%, ClpP mod -2.2%&-2.7%, gsp agonist -21%, TRPV1 PAM 19, TRPML1 inh 21&-4 and Sfp PPTase inh 8%.
For Cn1c2ccccc2c(=O)c2ccc(Cl)cc21 the results were ClpP mod 4.5%, gsp agonist -29% and TRPML1 inh 37.
For CCc1ccc(C(=O)NNC(=O)C2CSC3(C)CCC(=O)N23)cc1 (configuration not stated) the results were gsp antagonist -1%, ClpP mod -1.6%, gsp agonist -47%[inhibitor], TRPV1 PAM 15 and TRPML1 inh 9.
For COc1ccc(-c2cn[nH]c2-c2ccc(OC)cc2O)cc1 the results were gsp antagonist -18%, gsp agonist -9%[15.4 µM], TRPV1 PAM -8, Menin-MLL FL inh 1.7, TRPML1 inh 61 and Sfp PPTase inh 12%.
`O=C(O)Cn1c(=S)sc2ccccc21` gave gsp antagonist 7%, gsp agonist -5%[15.4 µM], TRPV1 PAM -4, Menin-MLL FL inh -6.5, TRPML1 inh -13 and Sfp PPTase inh 10%.
Screening O=C(C1=NN[C@@H]2C(=O)N(c3ccccc3C(F)(F)F)C(=O)[C@H]12)c1ccc2ccccc2n1 returned gsp antagonist 14%, ClpP mod 2.1%, gsp agonist 2%, TRPV1 PAM 0, Menin-MLL FL inh 1.9, TRPML1 inh 5 and Sfp PPTase inh 2%.
For CC1CCC(NC(=O)COC(=O)c2ccco2)CC1 (configuration not stated) the results were gsp antagonist 1%, ClpP mod 2.0%, gsp agonist -41%[inhibitor], TRPV1 PAM 10 and TRPML1 inh 4.
For O=C(NC1CCCCC1)NC1CCN(C(=S)NCc2ccco2)CC1 the results were gsp antagonist 1%, ClpP mod -1.4%, gsp agonist -9%, TRPV1 PAM -6, Menin-MLL FL inh 1.8, TRPML1 inh -1 and Sfp PPTase inh 13%.
For CCCCC12CN3CCN(CC(C3)/C1=N\NC(=O)Nc1ccccc1)C2 the results were gsp antagonist -13%, ClpP mod 1.4%, gsp agonist 19%[15.4 µM], TRPV1 PAM 1, Menin-MLL FL inh 1.9, TRPML1 inh -11 and Sfp PPTase inh 10%.
Cc1cc(C)n(C(=O)CNc2ccc(C)c(C)c2)n1 was read as gsp antagonist -1%, ClpP mod -8.4%, gsp agonist 20%, TRPV1 PAM -11, Menin-MLL FL inh 2.1, TRPML1 inh 8 and Sfp PPTase inh -3%.
`O=C(Nc1ccc(N2CCN(C(=O)c3ccco3)CC2)cc1)c1cc(Br)ccc1Cl` gave gsp antagonist -18%, ClpP mod 2.3%, gsp agonist -15%, TRPV1 PAM -10 and TRPML1 inh -18.
Screening CCOC(=O)N1CCC(NC(=O)CSCc2nc(-c3cccc(OC)c3)oc2C)CC1 returned gsp antagonist -21%, ClpP mod -24%, gsp agonist -34%[inhibitor], TRPV1 PAM -2, Menin-MLL FL inh 5.7, TRPML1 inh 17 and Sfp PPTase inh 10%.
For NCCSC1CC(=O)N(c2ccc(F)cc2)C1=O (configuration not stated) the results were gsp antagonist 0%, ClpP mod -1.7%, gsp agonist 14%[15.4 µM], TRPV1 PAM -1, Menin-MLL FL inh 2.6, TRPML1 inh -13 and Sfp PPTase inh 0%.
O=C(NCCS(=O)(=O)N1CCCCCC1)c1ccccc1 was read as gsp antagonist 9%, ClpP mod -1.3%, gsp agonist -14%[15.4 µM], TRPV1 PAM 2 and TRPML1 inh 18.
Screening O=C(CN(C(=O)CNC(=O)c1ccco1)c1ccc2c(c1)OCCO2)NC1CCCCC1 returned gsp antagonist 1%, gsp agonist -19%, TRPV1 PAM 14, Menin-MLL FL inh -4.8, TRPML1 inh -5 and Sfp PPTase inh 24%.
COc1ccccc1NC(=O)c1c(Br)cnn1C was read as gsp antagonist 2%, gsp agonist inconclusive, TRPV1 PAM -14, Menin-MLL FL inh 1.3, TRPML1 inh 4 and Sfp PPTase inh -17%.
For COc1ccc2c(c1)c(=O)oc1cc(OC(C(=O)O)c3ccccc3)ccc12 (configuration not stated) the results were gsp antagonist -28%, ClpP mod 0.1%, gsp agonist -6%[15.4 µM], TRPV1 PAM 6, Menin-MLL FL inh 0.9, TRPML1 inh -3 and Sfp PPTase inh 4%.
C=CCc1cccc(/C=N/NC(=O)C(C)Nc2cccc(C)c2)c1O (configuration not stated) was read as gsp antagonist -16%, gsp agonist 2%, TRPV1 PAM -3, Menin-MLL FL inh 4.0, TRPML1 inh 3 and Sfp PPTase inh 35%.
COc1ccccc1NC(=O)C(C)N(C)Cc1ccc(Cl)s1 (configuration not stated) was read as gsp antagonist -4%, gsp agonist 0%[15.4 µM], TRPV1 PAM -19, Menin-MLL FL inh 6.9, TRPML1 inh -4 and Sfp PPTase inh -3%.
For COc1ccc(F)cc1CN1CCN(c2cc(C)nc3c4c(C)cc(C)nc4nn23)CC1 the results were TRPV1 PAM -5, Menin-MLL FL inh 3.7 and Sfp PPTase inh -30%.
For COc1cccc(/C=C/C(=O)c2ccc(NC3=NCCCS3)cc2)c1 the results were gsp antagonist 1%, gsp agonist 1%, TRPV1 PAM 5, Menin-MLL FL inh -3.2, TRPML1 inh -3 and Sfp PPTase inh -13%.
`Cc1ccc(CNS(=O)(=O)/C=C/c2ccc3c(c2)OCO3)cc1` gave gsp antagonist -6%, ClpP mod -5.6%, gsp agonist 25%, TRPV1 PAM inconclusive, Menin-MLL FL inh -0.1, TRPML1 inh 5 and Sfp PPTase inh -2%.
Screening CC(OC(=O)c1ccc(NC(=O)CC#N)cc1)C(=O)NC(c1ccccc1)c1ccccc1 (configuration not stated) returned gsp antagonist -2%, ClpP mod 0.1%, gsp agonist 14%[15.4 µM] and TRPML1 inh -3.
N#Cc1c(-n2cccc2C=O)sc2c1CCCC2 was read as gsp antagonist -11%, gsp agonist -3%[15.4 µM], TRPV1 PAM -15, Menin-MLL FL inh -0.4, TRPML1 inh 40 and Sfp PPTase inh 6%.
Cc1ccc(C(=O)CCC(=O)NNC(=O)c2ccccc2O)cc1 was read as gsp antagonist -7%, ClpP mod 4.1%, gsp agonist 15%, TRPV1 PAM 25 and TRPML1 inh -13.
`CCN(CC)C(=O)COc1ccc2c(c1)C(=O)CC(C)(C)O2` gave gsp antagonist 9%, ClpP mod 4.4%, gsp agonist 15%, TRPV1 PAM 21, Menin-MLL FL inh 3.0, TRPML1 inh 10 and Sfp PPTase inh 5%.
For CCOC(=O)[C@H]1[C@H]2COc3cc(OC)ccc3[C@@H]2N2C(=O)c3cc(C)ccc3NC(=O)[C@@]12C the results were gsp antagonist -2%, ClpP mod -2.0%, gsp agonist 6%, TRPV1 PAM 2 and TRPML1 inh -13.
For C=C(C)C1CC=C(C)/C(=N/NC(=O)C2CC2c2ccccc2)C1 (configuration not stated) the results were gsp antagonist 4%, ClpP mod -2.5%, gsp agonist 7%, TRPV1 PAM 3, Menin-MLL FL inh 5.1, TRPML1 inh 0 and Sfp PPTase inh -8%.
For Cn1c(=S)n(C)c2ccccc21 the results were gsp antagonist 8%, ClpP mod 1.5%, gsp agonist 1%, TRPV1 PAM 12, Menin-MLL FL inh -4.5, TRPML1 inh 2 and Sfp PPTase inh 13%.
For O=C(c1cccc([N+](=O)[O-])c1)N1CCN(c2cccc(Cl)c2)CC1 the results were gsp antagonist -3%, ClpP mod -1.0%, gsp agonist 38%, TRPV1 PAM 1, Menin-MLL FL inh 3.9, TRPML1 inh -30 and Sfp PPTase inh 6%.
Screening Cc1[nH]n(-c2ccccc2)c(=S)c1C=Nc1cccc([N+](=O)[O-])c1 returned gsp antagonist -17%, ClpP mod -0.8%, gsp agonist -14%, TRPV1 PAM 10, Menin-MLL FL inh 6.9, TRPML1 inh -6 and Sfp PPTase inh -92%.
`Cc1cc(C)c2c(CN3CCN(C)CC3)cc(=O)oc2c1` gave gsp antagonist 0%, ClpP mod -4.9%, gsp agonist 11%, TRPV1 PAM 14, Menin-MLL FL inh 1.4, TRPML1 inh 4 and Sfp PPTase inh -5%.

Screens deposited in PubChem BioAssay by National Center for Advancing Translational Sciences (NCATS).
